Env fusion inh: inhibitors of HIV-1 Env-driven cell-cell fusion, primary screen, HeLa-JRFL effector, CEM21 target cells, luciferase; AID 651610, 2012; inhibition, % at 12.3 µM; 1.1% of 360,000 active;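 active = mean replicate inhibition score of at least 50 and every replicate individually at or above 50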;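 also: 0% = plate neutral controls and 100% = maraviroc near 300 nM; one replicate is shown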
eIF4H FP inh: human eIF4H binding inhibitors, primary screen, translation initiation inhibitor project, biochemical, uHTS, fluorescence polarization | inhibition, % at 35 µM | eIF4H fluorescence polarization binding assay | AID 2012, 2009 | Eukaryotic translation initiation factor 4H (Homo sapiens), Q15056 | 0.94% of 290,000 active;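 active = 50% or more with normal probe brightness, or confirmed in later tests; about a fifth of its hits are not listed in these tables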;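 also: calls also rest on retests at 20 µM and on dose response follow-up; 0% = protein and probe with vehicle and 100% = probe without protein; strong numbers were not always called active; many hits fall short of the cut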
PABP polyA inh: PABP poly(A) RNA binding inhibitors, primary screen, biochemical, fluorescence polarization, uHTS. Polyadenylate-binding protein 1 (Homo sapiens), P11940. inhibition, % at 35 µM. 1% of 290,000 active;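 active = 50% or more with normal probe brightness, or confirmed in later tests; about a fifth of its hits are not listed in these tables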;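 also: calls also rest on retests at 20 µM and on dose response follow-up; controls were probe without protein and protein plus probe with vehicle; some compounds called inactive have numbers as strong as hits; many hits fall short of the cut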
Target sequence (P11940 whole entry, looked up): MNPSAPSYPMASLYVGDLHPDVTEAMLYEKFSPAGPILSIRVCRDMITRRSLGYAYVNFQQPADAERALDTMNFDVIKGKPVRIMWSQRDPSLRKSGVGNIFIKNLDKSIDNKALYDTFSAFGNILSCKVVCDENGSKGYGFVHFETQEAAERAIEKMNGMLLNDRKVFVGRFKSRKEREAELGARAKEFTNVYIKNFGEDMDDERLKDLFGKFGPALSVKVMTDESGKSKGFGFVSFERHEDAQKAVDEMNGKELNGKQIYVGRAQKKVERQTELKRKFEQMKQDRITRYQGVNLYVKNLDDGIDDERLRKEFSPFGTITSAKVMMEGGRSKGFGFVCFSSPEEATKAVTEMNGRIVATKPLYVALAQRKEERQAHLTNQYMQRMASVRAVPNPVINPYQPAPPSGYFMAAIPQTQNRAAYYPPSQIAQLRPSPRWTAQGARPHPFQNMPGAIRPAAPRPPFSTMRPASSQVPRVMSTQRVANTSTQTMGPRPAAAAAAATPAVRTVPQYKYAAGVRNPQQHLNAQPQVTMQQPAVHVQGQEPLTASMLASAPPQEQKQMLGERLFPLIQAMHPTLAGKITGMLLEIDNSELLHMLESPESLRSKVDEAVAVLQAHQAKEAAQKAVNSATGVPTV
CSC inhib: cancer stem cell viability inhibitors, primary screen, luminescence. inhibition, % at 7.5 µM. cancer stem cell-like cells viability. 1.1% of 300,000 active;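 active = mean at 75% or more and at least half the replicates too; tested in HMLE shEcad cells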;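 also: 0% = median of negative and 100% = median of positive control wells; the first replicate is given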
Rce1 inh: yeast Rce1p protease inhibitors, primary screen, biochemical, fluorescence, cell-free homogeneous. calls only. 0.27% of 290,000 active. yeast membranes, quenched prenylated peptide cleavage fluorescence;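 active = fall in fluorescence gain of 50% or more versus controls, with final raw signal at or below 3038400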;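 also: plate controls were neutral control wells for no effect and wells lacking membranes for full effect; tested at 10 µM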
Target sequence (Q03530 whole entry, looked up): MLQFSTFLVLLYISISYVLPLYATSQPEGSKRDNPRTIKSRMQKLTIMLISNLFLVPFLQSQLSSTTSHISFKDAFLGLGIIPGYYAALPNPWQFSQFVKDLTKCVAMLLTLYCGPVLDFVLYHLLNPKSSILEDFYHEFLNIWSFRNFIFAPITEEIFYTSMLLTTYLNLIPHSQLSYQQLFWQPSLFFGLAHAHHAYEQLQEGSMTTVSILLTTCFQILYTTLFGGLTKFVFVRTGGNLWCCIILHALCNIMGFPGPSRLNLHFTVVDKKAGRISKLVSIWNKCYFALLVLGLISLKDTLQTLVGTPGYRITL
MT1-MMP act inh: blockers of MT1-MMP proenzyme processing, primary screen, HT1080 RFP-PRO-GFP cells, GFP/RFP fluorescence; AID 651647, 2012; 0.061% of 360,000 active; GFP/RFP ratio fluorescence, overnight; percent of plate control window, DMSO zero; GFP/RFP ratio change, % at 20 µM;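 active = GFP/RFP ratio change of at least 30% with cell ATP level not reduced by more than half and red fluorescence within 50% of control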; also: strong numbers were not always called active
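Assay system – RFP-PRO-GFP reporter HT1080 cells · Compound dosing – single dose of 20 µM compound, 1% DMSO final · Incubation – overnight compound exposure at 37 °C · Measure – GFP/RFP fluorescence ratio · Benchmarks – DMSO wells and RFP-L50D-GFP cells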
Yeast UUG start: modulators of yeast start codon fidelity, primary screen, whole organism, S. cerevisiae, single point, plate reader; S. cerevisiae UUG-firefly luciferase reporter, luminescence/redox ratio; activity score, % at 18.7 µM; 0.13% of 350,000 active; AID 602363, 2012;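 active = replicate mean at a twofold rise or more, about +100% in these data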;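 also: firefly luciferase made from a UUG start codon reports start codon fidelity; reporter light over untreated wells divided by growth signal over untreated wells; some hits fall short of that in this replicate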
MT1-MMP act inh RFP: recorded beside MT1-MMP act inh, whose call it bears; RFP signal change, %; measured here: RFP expression control read;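 0 = vehicle wells; hits needed this value within 50% of zero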
Starred values were filed as active, the others as inactive; i = inactive; / = not tested or not shown; + = active, no number; [ ] = dose if it differs, or a comment. Some of the compounds tested; the hit share may differ from the screen's.

SMILES	Env fusion inh	eIF4H FP inh	PABP polyA inh	CSC inhib	Rce1 inh	MT1-MMP act inh	MT1-MMP act inh RFP	Yeast UUG start
COC(=O)Cc1[nH]n(-c2nc3ccccc3s2)c(=O)c1C(C)=Nc1ccc(OC)cc1	-53	-10	-3	32	i	3	1	/
Clc1ncn(C23CC4CC(CC(C4)C2)C3)n1	/	3	0	1	i	3	2	-15
O=C(Cc1ccccc1F)Nc1cc(S(=O)(=O)N2CCCCC2)ccc1N1CCOCC1	11	/	/	/	/	0	0	20
COCCCNC(=O)[C@H](CSCc1ccccc1)N1Cc2ccccc2C1=O	2	-1	-5	-10	i	1	-1	/
Cc1cc(N=Cc2c(O)ccc3cc(Br)ccc23)no1	-2	4	-2	40	i	-1	1	-9
CCC(C(=O)O)n1nnc(-c2ccc(-c3ccc(OC)cc3)cc2)n1 (stereo not given)	/	-7	2	24	i	2	6	/
O=C(C[C@H]1CC[C@@H](NC(=O)C2CC2)[C@@H](CO)O1)NCc1ccccc1Cl	-23[16.7 µM]	/	/	/	/	-2	2	-3
COc1cccc(OCC(=O)NN=C2c3ccccc3-c3ccccc32)c1	5	-12	0	2	i	8	3	15
COc1cc(C[C@@H]2C(=O)OC[C@H]2Cc2ccc(OC)c(OC)c2)ccc1O	32	/	/	-8	/	18	-28	-5
C/C(=N\NC(=O)c1cccc(C)c1O)c1ccc(NC(=O)Cc2ccccc2)cc1	-232	7	7	-9	i	6	2	-22
COc1cccc(NC(=O)CN(C)C(=O)/C=C/c2ccc3ccccc3n2)c1	7	/	/	21	i	-10	-1	-10
O=C(COC(=O)c1cccc(S(=O)(=O)N2CCCCC2)c1)NCc1ccccc1	-16	/	/	/	/	2	-1	-2
COCCn1c(=O)[nH]c(=O)c2cc(C(=O)c3cc(OC)ccc3O)cnc21	-22	9	3	-7	i	3	6	-8
O=[N+]([O-])c1ccc(O)c(C=Nc2ccc3nc(-c4ccccc4)[nH]c3c2)c1	-3	-15	0	/	i	8	-1	/
CN(C)c1cccc(C(=O)N2CCCC(CCC(=O)NCc3ccccc3F)C2)c1 (stereo not given)	0	-11	3	14	i	0	-2	-20
C=CCSc1nnc(CNS(=O)(=O)c2ccc(C)cc2)n1C	2	2	-1	-15	i	-2	2	4
COC(=O)c1cc(NS(=O)(=O)c2ccc(N3CCC(C)CC3)c([N+](=O)[O-])c2)cc(C(=O)OC)c1	13	-5	13	/	i	2	1	9
Cc1cccc(OCc2nnc(SCC(=O)NC3CCCC3)n2C)c1	-2	-6	8	-1	i	3	9	-14
CS(=O)(=O)NCc1ccc(C(=O)NC2CCCCC2)cc1	-2	-10	-12	-13	i	5	1	3
COCC(=O)N1CCC(n2nnc3cc(F)ccc32)CC1	-76	0	7	-12	/	2	3	-4
COc1ccc(C2CC(c3cccs3)=NN2C(=O)COC(=O)C2CCCCC2)cc1OC (stereo not given)	-3	-7	-14	-2	i	0	-1	-11
CCc1ccc(N2C(=O)C3CCCN3C2=S)cc1 (stereo not given)	2	-4	3	0	i	-6	1	-13
CC(C)(C)C(=O)CNCC(=O)C(C)(C)C	23	8	4	4	i	6	6	/
O=C(N/N=C/C=C\c1ccccc1[N+](=O)[O-])c1ccncc1	-13	-4	-11	0	i	1	4	-18
CCC(C)[C@H](NC(=O)NCc1ccccn1)C(=O)OC (stereo not given in full)	/	-10	-4	/	i	7	7	-11
NCCCC[C@@H]1NC(=O)c2cc([N+](=O)[O-])cc(F)c2NCCCC[C@@H](C(N)=O)NC(=O)[C@H](CCC(N)=O)NC1=O	11	11	7	9	i	-1	6	-7
COc1cc([N+](=O)[O-])ccc1NC(=O)COC(=O)c1n[nH]c2ccccc12	-5	-5	-6	-10	i	5	1	/
CCO[C@@H]1OC(C(N)=O)=C[C@H](C(C)(C)C)[C@H]1CCCO	18	/	/	-10	i	-3	1	-24
COC(=O)c1cc(OC)c(OC)cc1N=CC1=C(O)CC(C)(C)CC1=O	/	-4	-3	-6	i	13	4	-3
CCN(C(=O)c1ccc(=O)n(C)n1)c1c(N)n(Cc2ccccc2)c(=O)[nH]c1=O	5	/	/	/	/	1	0	-8
COc1ccccc1N1CCN(/N=C(\C)c2ccccc2O)CC1	-6	-4	14	-7	i	4	3	2
Cc1cc(C)c(S(=O)(=O)NCc2cn3c(C)csc3n2)cc1C	/	4	13	-1	i	10	-1	/
CCn1c(=O)c(C(=O)NNC(=O)Cc2ccccc2)c(O)c2ccccc21	4	-8	-4	-8	/	5	6	-4
CC[C@H](C)[C@@H](CN[C@H](CCCCNC)CNC)NCC1CCCC1	4	11	27	-11	i	4	2	-7
Cn1cccc1C(=O)NC(=O)COC(=O)c1cc(Cl)ccc1[N+](=O)[O-]	7	-9	7	-7	/	-2	2	-7
Cc1ccccc1Cn1ccc(NC(=O)c2cc3nc(-c4ccco4)cc(C(F)(F)F)n3n2)n1	/	-1	-1	8	i	-2	1	4
Cc1ccc(C2NC(=S)N3C(c4ccc(C)cc4)NC(=S)N23)cc1 (stereo not given)	-6	/	/	/	/	0	2	-24
COc1ccc(NC(=O)Nc2c(C)n(C)n(-c3ccccc3)c2=O)c(OC)c1	-6	-6	10	-9	i	2	2	-16
CCc1ccc(NC(=S)N2CCCCCCC2)cc1	-5	-5	4	-6	i	0	5	-20
O=C(COC(=O)C1=COCCO1)Nc1cccc(Oc2ccccc2)c1	40	6	-4	2	i	0	1	-6

Brought forward from above: 5 entries, followed by the next part.
SMILES	Env fusion inh	eIF4H FP inh	PABP polyA inh	CSC inhib	Rce1 inh	MT1-MMP act inh	MT1-MMP act inh RFP	Yeast UUG start
Cc1ccccc1Cn1ccc(NC(=O)c2cc3nc(-c4ccco4)cc(C(F)(F)F)n3n2)n1	/	-1	-1	8	i	-2	1	4
Cc1ccc(C2NC(=S)N3C(c4ccc(C)cc4)NC(=S)N23)cc1 (stereo not given)	-6	/	/	/	/	0	2	-24
COc1ccc(NC(=O)Nc2c(C)n(C)n(-c3ccccc3)c2=O)c(OC)c1	-6	-6	10	-9	i	2	2	-16
CCc1ccc(NC(=S)N2CCCCCCC2)cc1	-5	-5	4	-6	i	0	5	-20
O=C(COC(=O)C1=COCCO1)Nc1cccc(Oc2ccccc2)c1	40	6	-4	2	i	0	1	-6
c1cnc(NC2C3CC4CC(C3)CC2C4)nc1 (stereo not given)	/	-11	-20	-9	i	3	3	-2
COc1ccc(-c2noc(CCC(=O)NCc3cc(Br)ccc3OC)n2)cc1	/	-2	2	-1	i	3	-1	-2
O=C(Nc1ccccn1)c1ccc(-c2ccccc2)cc1	-146	-4	-6	7	i	2	-13	-63
CC1=C(C#N)C(NC(=O)c2ccc(C)cc2)(C(F)(F)F)C(=O)N1 (stereo not given)	-14	-4	2	-4	i	-1	2	-13
CC(NC(=O)COc1cccnc1[N+](=O)[O-])c1ccc(Cl)cc1Cl (stereo not given)	6	-13	0	-5	i	1	1	8
O/N=C1\CCCc2nnc3c(c21)CCCC3	-12	1	12	-5	i	2	3	-14
Cc1cc(C)c2oc(C(=O)Nc3ccc(S(=O)(=O)Nc4nccs4)cc3)cc(=O)c2c1	0	38	6	-9	i	3	1	/
Cc1ccccc1NC(=O)C[n+]1cc(-c2ccccc2)n2c1CCC2	-6	-1	5	-11	i	-3	0	-15
COc1ccc(C(=O)CSc2nc3c(c(=O)n(C)c(=O)n3C)n2C)cc1	/	-7	-13	2	/	/	/	/
CCN1C(=O)[C@H]2[C@@H](c3ccc(C)cc3)N3C(=O)N(c4cccc(Br)c4)C(=O)[C@@]3(CC)[C@H]2C1=O	83*	/	/	2	i	1	1	-5
Cc1ccc(-c2nc3c(=O)n(-c4ccccc4)c4c(c(=O)n(C)c(=O)n4C)c3o2)cc1	-12	-8	-1	-6	i	3	-1	-3
Cc1cc(C)nc(SC(C(=O)O)c2ccccc2)n1 (stereo not given)	-5	2	-4	/	i	-1	-5	/
COc1ccc(N2CCN(C(=O)CCS(=O)(=O)c3ccc(C)cc3)CC2)cc1	3	-14	-6	6	i	0	-3	-13
COC(=O)C(Cc1c[nH]c2ccccc12)NC(=O)CNC(C)=O (stereo not given)	/	-13	4	-5	i	-1	-1	-3
O=c1cc(CSc2nnnn2-c2ccccc2)nc2scc(-c3ccccc3)n12	14	13	9	64	i	-4	-2	-4
O=C(NC(Cc1ccc2c(c1)OCO2)C(=O)NC(Cc1ccccc1)C(=O)O)c1ccccc1 (stereo not given)	12	-3	4	-16	i	-1	-3	-16
COc1cc2ccccc2cc1C(=O)N(CCN(C)C)c1nc2ccc(C)cc2s1	13	-13	8	-8	+	-3	-1	-25
Cc1nn(Cc2ccccc2)c(C)c1C(=O)Nc1ccc(N2CCOCC2)cc1	-39	-9	-7	-2	i	1	0	-6
COc1ccc(-c2n(Cc3ccccc3)c3ccccc3[n+]2Cc2ccccc2)cc1	70*	7	1	25	i	-33	-34	/
COc1cccc(C(=O)NCCN2C(=O)S/C(=C/c3cccs3)C2=O)c1OC	-11	-3	-8	-1	i	0	6	/

Nothing new here: five of the compounds above.
SMILES	Env fusion inh	eIF4H FP inh	PABP polyA inh	CSC inhib	Rce1 inh	MT1-MMP act inh	MT1-MMP act inh RFP	Yeast UUG start
O=C(NC(Cc1ccc2c(c1)OCO2)C(=O)NC(Cc1ccccc1)C(=O)O)c1ccccc1 (stereo not given)	12	-3	4	-16	i	-1	-3	-16
COc1cc2ccccc2cc1C(=O)N(CCN(C)C)c1nc2ccc(C)cc2s1	13	-13	8	-8	+	-3	-1	-25
Cc1nn(Cc2ccccc2)c(C)c1C(=O)Nc1ccc(N2CCOCC2)cc1	-39	-9	-7	-2	i	1	0	-6
COc1ccc(-c2n(Cc3ccccc3)c3ccccc3[n+]2Cc2ccccc2)cc1	70*	7	1	25	i	-33	-34	/
COc1cccc(C(=O)NCCN2C(=O)S/C(=C/c3cccs3)C2=O)c1OC	-11	-3	-8	-1	i	0	6	/

New compounds follow
SMILES	Env fusion inh	eIF4H FP inh	PABP polyA inh	CSC inhib	Rce1 inh	MT1-MMP act inh	MT1-MMP act inh RFP	Yeast UUG start
Cc1c(C(=O)O)cccc1-n1c(C)cc(/C=N/Nc2ccc([N+](=O)[O-])cn2)c1C	6	33	27	1	i	2	1	/
COc1ccc(N2CCN(CCCNC(=O)C3(S(=O)(=O)c4ccc(Cl)cc4)CC3)CC2)cc1	/	-10	10	-6	i	4	0	6
CC1(C(=O)NS(=O)(=O)c2cccc(F)c2)CCN1C(=O)C1CCCCC1 (stereo not given)	-5	/	/	/	/	0	4	-13
Cc1ccccc1OCCNC(=O)c1ccco1	-45	-5	4	0	i	5	2	-5
CC(OC(=O)/C=C/c1cccc(Cl)c1)C(=O)NC1CCCCC1C (stereo not given)	-18	/	/	0	/	1	1	-6

Screening results: PubChem BioAssay, several laboratories
